rRNA inh HTS: selective bacterial rRNA inhibition in E. coli; E. coli WT GFP vs humanized-ribosome RFP mutants, fluorescence, 24 h; stronger effect = lower value; DMSO median 0, no signal -100; GFP signal change (wild-type ribosome), % (test concentration not listed); 350,000 tested, 1.6% active; AID 720706;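 active means significant combined selectivity score with lowered wild-type GFP, culture density cut under 30%, mutant RFP and density less affected; inactive means any of these conditions unmet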; further: one replicate is shown; some compounds called inactive have numbers as strong as hits
ALR H2O2 inh: human ALR oxidase inhibition via reduced H2O2 | 290,000 tested, 3.8% active | inhibition, % (test concentration not listed) | purified ALR, DTT oxidation, H2O2 HRP-luminol luminescence | AID 485317 | P55789;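 active means mean and each replicate at 75% or more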;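 further: stock transfer was 7.5 nL into about 7.5 µL; 0% = neutral wells and 100% = wells with inactivated enzyme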
Target sequence (P55789 whole entry, looked up): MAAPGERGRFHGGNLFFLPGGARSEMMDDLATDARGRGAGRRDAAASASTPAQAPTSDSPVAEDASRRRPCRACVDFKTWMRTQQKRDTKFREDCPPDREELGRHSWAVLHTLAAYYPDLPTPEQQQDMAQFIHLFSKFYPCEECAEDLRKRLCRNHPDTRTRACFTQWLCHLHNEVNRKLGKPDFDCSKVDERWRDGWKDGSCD
Beta2AR agonist: activates human beta-2 adrenergic receptor causing internalization; P07550; Am2.2-beta2AR cells, FAP receptor internalization, flow cytometry; reference of the scale not given here; response, % (test concentration not listed); 340,000 tested, 0.43% active;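 active means response above a set limit, near 3 SD of response in nonfluorescent compounds, cut at about 42% in these data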;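 further: stock transfer was 100 nL into about 11 µL; a reference agonist was the positive control; negative values mostly stem from fluorescent compounds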
FGF22 binding: shifts melting point of recombinant human FGF22 | Q9HCT0 | recombinant FGF22 thermal shift, SYPRO orange fluorescence; percent of sucrose octasulfate shift, DMSO zero | calls only at 9.99 µM | 340,000 tested, 1.5% active;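 active means melting point raised past a set limit in the mean and every replicate; three in four hits are not shown here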
Target sequence (Q9HCT0 whole entry, looked up): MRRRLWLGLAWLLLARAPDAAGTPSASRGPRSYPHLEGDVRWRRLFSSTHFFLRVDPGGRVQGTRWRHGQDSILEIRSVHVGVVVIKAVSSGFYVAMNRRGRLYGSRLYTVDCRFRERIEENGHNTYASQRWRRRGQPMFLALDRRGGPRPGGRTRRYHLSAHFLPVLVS
UCH37 DUB inh: blocks the human deubiquitinase UCH37. inhibition, % (no concentration beside the values). Q9Y5K5. purified proteasome/UCH37, Ub-AMC cleavage fluorescence. 330,000 tested, 0.33% active;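 active means mean of two replicates above 20%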;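 further: 0% = compound-free wells with enzyme and 100% = wells lacking proteasome; stock transfer was 100 nL into about 20 µL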
Target sequence (Q9Y5K5 whole entry, looked up): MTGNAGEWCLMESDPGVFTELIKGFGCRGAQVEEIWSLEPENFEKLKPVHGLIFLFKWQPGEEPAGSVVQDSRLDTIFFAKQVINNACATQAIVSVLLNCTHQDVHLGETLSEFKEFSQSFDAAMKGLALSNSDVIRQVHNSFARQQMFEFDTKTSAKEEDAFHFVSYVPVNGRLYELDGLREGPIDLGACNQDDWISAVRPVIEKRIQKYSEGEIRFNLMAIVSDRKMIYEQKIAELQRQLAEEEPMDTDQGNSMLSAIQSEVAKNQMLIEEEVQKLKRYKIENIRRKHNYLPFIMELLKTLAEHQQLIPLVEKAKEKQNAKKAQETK
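Reagent: Ub-AMC substrate; assay system: Proteasome-associated human UCH37 deubiquitinase; controls: no-proteasome and no-compound wells; read-out: % inhibition of Ub-AMC cleavage fluorescence; timing: 30 min preincubation with enzyme, 25 min cleavage at room temperature; signal: AMC fluorescence from Ub-AMC cleavage, excitation 355 nm, emission 460 nm; buffer or medium: Tris-HCl pH 7.4 plus ovalbumin, ATP-MgCl2, DTT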
E coli growth: inhibitors of Escherichia coli growth; 330,000 tested, 0.21% active; AID 1053175; OD600, 23 h; stronger effect = lower value; OD600 absorbance (test concentration not listed);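 active means OD600 absorbance below the run mean of sample wells minus 3.6 SD, in any replicate, cut at about 0.56 in these data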;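 further: stock transfer was 300 nL into about 60 µL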
HNF4A DNA FP: change in binding of human HNF4 alpha to DNA; HNF4a-FITC DNA binding, fluorescence polarization, 1 h; activity change, % at 10 µM; 360,000 tested, 0.3% active; in the data active means activity change above about 30%, passing the limit was not always enough;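 further: controls were the assay level and a saturating level of protein; the project sought stronger binding though the title names inhibitors; some compounds called inactive have numbers as strong as hits; positive values seem to mean higher polarization but the record does not say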
rRNA inh HTS OD600: second read-out of rRNA inh HTS, no call of its own (marks repeat the call); OD600 change, %; measured here: OD600 growth;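 optical density of the mix in the first replicate; 0 = DMSO median and -100 = no signal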
rRNA inh HTS RFP: further read-out of rRNA inh HTS, marked with its call; RFP signal change, %; measured here: RFP humanized mutant strains;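 first replicate; 0 = DMSO median and -100 = no signal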
* marks the source's active call; other numbers are inactive results; i = inactive; . = not tested or not shown. These rows are one share of the data (hit frequency here may not be typical).

The first three compounds, ahead of the listing:
Keys: A = rRNA inh HTS; B = rRNA inh HTS OD600; C = rRNA inh HTS RFP; D = ALR H2O2 inh; E = Beta2AR agonist; F = FGF22 binding; G = UCH37 DUB inh; H = E coli growth; I = HNF4A DNA FP
> Cc1noc(C)c1S(=O)(=O)N(C)C[C@H]1Oc2c(NC(=O)Nc3ccc(C(F)(F)F)cc3)cccc2C(=O)N([C@H](C)CO)C[C@@H]1C
  A = 3	B = 2	C = -0.9	D = .	E = 8	F = i	G = .	H = .	I = 1.2

> Cc1ccc(CNCc2cccnc2)cc1
  A = .	B = .	C = .	D = -3	E = 1	F = .	G = 0.1	H = 0.74	I = -0.8

> Cc1ccc(S(=O)(=O)CCc2nnc(NC(=O)CCl)s2)cc1C
  A = 10	B = 11	C = 5.0	D = .	E = -6	F = i	G = 1.9	H = 0.67	I = 3.2

All compounds of this part, from the first entry:
Keys: A = rRNA inh HTS; B = rRNA inh HTS OD600; C = rRNA inh HTS RFP; D = ALR H2O2 inh; E = Beta2AR agonist; F = FGF22 binding; G = UCH37 DUB inh; H = E coli growth; I = HNF4A DNA FP
> Cc1noc(C)c1S(=O)(=O)N(C)C[C@H]1Oc2c(NC(=O)Nc3ccc(C(F)(F)F)cc3)cccc2C(=O)N([C@H](C)CO)C[C@@H]1C
  A = 3	B = 2	C = -0.9	D = .	E = 8	F = i	G = .	H = .	I = 1.2

> Cc1ccc(CNCc2cccnc2)cc1
  A = .	B = .	C = .	D = -3	E = 1	F = .	G = 0.1	H = 0.74	I = -0.8

> Cc1ccc(S(=O)(=O)CCc2nnc(NC(=O)CCl)s2)cc1C
  A = 10	B = 11	C = 5.0	D = .	E = -6	F = i	G = 1.9	H = 0.67	I = 3.2

> CCOc1ccc(-n2nnc3c(=O)n(CC(=O)Nc4cc(C)on4)cnc32)cc1
  A = 9	B = 4	C = -2.8	D = -10	E = -12	F = i	G = 0.2	H = 0.7	I = -4.6

> CC(=O)c1ccc(NC(=O)c2noc(C)c2[N+](=O)[O-])cc1
  A = 18	B = 11	C = 4.7	D = 7	E = 0	F = i	G = 3.6	H = 0.71	I = -1.9

> O=C(c1ccc(C(F)(F)F)cc1)c1c[nH]c(C(=O)NCCCn2ccnc2)c1
  A = .	B = .	C = .	D = -1	E = 9	F = .	G = 2.9	H = 0.7	I = -3.0

> COc1ccccc1NS(=O)(=O)c1cc(NC(=O)Nc2ccc(Cl)cc2Cl)ccc1N1CCCCC1
  A = .	B = .	C = .	D = -11	E = -1	F = .	G = 2.5	H = 0.71	I = -2.4

> S=c1[nH]cc(-c2ccccc2)n1-c1cccc(Cl)c1
  A = .	B = .	C = .	D = .	E = 0	F = i	G = 0.1	H = 0.73	I = -1.2

> CC(=O)NS(=O)(=O)c1ccc(NC(=O)C(C)NS(=O)(=O)/C=C/c2ccccc2)cc1 (stereo unspecified)
  A = 25	B = 15	C = 0.2	D = -5	E = 3	F = i	G = .	H = .	I = -2.5

> Cc1cc(C)nc(NC2=NCCN2C(=O)NC2CCCCC2)n1
  A = .	B = .	C = .	D = 4	E = -16	F = .	G = 1.8	H = 0.75	I = -2.1

> Cc1cccc(N2CCN(c3ccc4cc(S(=O)(=O)N5CCCCC5)ccc4n3)CC2C)c1 (stereo unspecified)
  A = 1	B = 9	C = -2.4	D = -4	E = -3	F = i	G = -146	H = 0.67	I = -4.4

> CCOc1ccccc1OCCCC(=O)N1CCN(S(=O)(=O)c2cccc(F)c2)CC1
  A = .	B = .	C = .	D = -25	E = -1	F = .	G = 0.3	H = 0.7	I = 1.8

> Cc1nn(-c2ccccc2)c(C)c1/C=C/C(=O)OCC(=O)Nc1ncc(C(F)(F)F)cc1Cl
  A = .	B = .	C = .	D = 1	E = -16	F = .	G = -0.7	H = 0.67	I = 0.0

> O=C(Nc1ccc(NC(=O)c2cccnc2)cc1)c1ccccc1
  A = 2	B = 8	C = -0.6	D = -10	E = 0	F = i	G = 1.4	H = 0.65	I = 0.6

> CCCCn1c(N)c(N(CC(C)C)C(=O)C2CCN(S(=O)(=O)c3ccccc3)CC2)c(=O)[nH]c1=O
  A = 15	B = 12	C = 4.6	D = -3	E = 0	F = i	G = 1.9	H = 0.68	I = -1.5

Single entries from above.
Under E coli growth, Cc1ccc(CNCc2cccnc2)cc1 reads 0.74
Under rRNA inh HTS OD600, CCOc1ccc(-n2nnc3c(=O)n(CC(=O)Nc4cc(C)on4)cnc32)cc1 reads 4
Under rRNA inh HTS RFP, O=C(Nc1ccc(NC(=O)c2cccnc2)cc1)c1ccccc1 reads -0.6
Under ALR H2O2 inh, O=C(c1ccc(C(F)(F)F)cc1)c1c[nH]c(C(=O)NCCCn2ccnc2)c1 reads -1

The results go on.
Keys: A = rRNA inh HTS; B = rRNA inh HTS OD600; C = rRNA inh HTS RFP; D = ALR H2O2 inh; E = Beta2AR agonist; F = FGF22 binding; G = UCH37 DUB inh; H = E coli growth; I = HNF4A DNA FP
> COCCNC(=O)c1cc(-c2ccccc2OC)on1
  A = -10	B = -7	C = -2.0	D = .	E = 6	F = i	G = -2.0	H = 0.68	I = -0.3

> Cn1cccc1C(NC(=O)c1ccccc1)C(Cl)(Cl)Cl (stereo unspecified)
  A = -23	B = -23	C = -3.0	D = -5	E = -7	F = i	G = 2.7	H = 0.68	I = 1.6

> Cc1cc(OCCCCCN2CCCC2)ccc1Cl
  A = -8	B = -9	C = 2.1	D = -10	E = 14	F = i	G = 5.3	H = 0.64	I = 1.4

> CC(NC(=O)c1ccccc1)C(=O)OCn1nnc2ccccc2c1=O (stereo unspecified)
  A = 17	B = 9	C = 4.6	D = -4	E = 1	F = i	G = 1.7	H = 0.65	I = -2.9

> CCNc1nc(Sc2ccc(C)cc2)cc(C(F)(F)F)n1
  A = .	B = .	C = .	D = 0	E = -11	F = .	G = 0.3	H = 0.66	I = -0.6

> CC(=O)c1ccc(NC(=O)COC(=O)Cc2ccsc2)cc1
  A = -1	B = -4	C = -3.2	D = -5	E = -5	F = i	G = .	H = .	I = -3.3

> COc1cc([N+](=O)[O-])ccc1N/C=C/C(=O)c1cccs1
  A = .	B = .	C = .	D = -17	E = -12	F = .	G = 3.2	H = 0.76	I = 147

> O=C(COc1ccc(F)cc1)NCC1(N2CCOCC2)CCCCC1
  A = 7	B = 5	C = 3.6	D = -3	E = 0	F = i	G = -2.8	H = 0.68	I = 4.9

> COC(=O)c1ccc(CN2C(=O)c3ccccc3C2=O)o1
  A = 12	B = 16	C = 3.1	D = 5	E = -1	F = i	G = 1.3	H = 0.71	I = 1.9

> O=C(c1cc2cc(Br)cc(Br)c2oc1=O)N1CCOCC1
  A = 8	B = 7	C = -3.1	D = 1	E = -5	F = i	G = 7.4	H = 0.7	I = -0.7

> N#CCCn1cc(CNCc2ccccc2)c(-c2cccc([N+](=O)[O-])c2)n1
  A = 5	B = 0	C = 2.1	D = -12	E = -2	F = i	G = 2.1	H = 0.64	I = 7.0

> Cc1cc(OC2CCCCC2)nc(NCc2ccccc2)n1
  A = 21	B = -2	C = -0.1	D = .	E = -2	F = i	G = 0.5	H = 0.64	I = 2.5

3 compounds picked at random from those above:
Keys: A = rRNA inh HTS; B = rRNA inh HTS OD600; C = rRNA inh HTS RFP; D = ALR H2O2 inh; E = Beta2AR agonist; F = FGF22 binding; G = UCH37 DUB inh; H = E coli growth; I = HNF4A DNA FP
> Cc1cc(OC2CCCCC2)nc(NCc2ccccc2)n1
  A = 21	B = -2	C = -0.1	D = .	E = -2	F = i	G = 0.5	H = 0.64	I = 2.5

> Cc1cccc(N2CCN(c3ccc4cc(S(=O)(=O)N5CCCCC5)ccc4n3)CC2C)c1 (stereo unspecified)
  A = 1	B = 9	C = -2.4	D = -4	E = -3	F = i	G = -146	H = 0.67	I = -4.4

> Cc1nn(-c2ccccc2)c(C)c1/C=C/C(=O)OCC(=O)Nc1ncc(C(F)(F)F)cc1Cl
  A = .	B = .	C = .	D = 1	E = -16	F = .	G = -0.7	H = 0.67	I = 0.0

Screening data from PubChem.
